miR-21 FLuc: raises the signal of a miR-21 reporter; 340,000 tested, under 10 active; Potency, µM (doses to about 38.3 µM), without a hit: top-dose reporter change, positive = more light; HeLa miR-21 FLuc reporter, luciferase, 48 h; active = well fitted rising curve with a large enough effect; inconclusive = small, poorly fitted or top-dose-only effect; inactive = no such curve, though single readings can be large or run the other way;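 also: % of control where 0% means no effect; miR-21 action dims this reporter so a rising signal means less miR-21 action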
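Using DMEM plus 10% FBS, HeLa miR-21-FLuc cells are incubated with test compounds (final up to about 40uM) for 48 hours; firefly luciferase signal is then imaged following reagent-mediated lysis.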
Active calls of the source: *; ? = inconclusive.

SMILES	miR-21 FLuc
O=C1c2ccccc2C(=O)C1(c1ccccc1)N1CCN(c2cccc(Cl)c2)CC1	10%
CCn1c(=O)c2cc(C(=O)NCCCN3CCN(C)CC3)sc2c2ccccc21	-34%
CCCOc1ccc(C(=O)Nc2cc3nn(-c4ccc(CC)cc4)nc3cc2C)cc1	-3%
COc1ccc2sc(N(Cc3cccnc3)C(=O)C3CCCCC3)nc2c1	22%
CCOC(=O)c1ccc(NC(=O)C(CC)Sc2nc3ccncc3[nH]2)cc1 (stereo not given)	-6%
Cc1ncc(CO)c2c1Oc1nc(-c3ccc(F)cc3)nc(SCC(=O)N3CCCCC3)c1C2	-1%
CCOC(=O)c1c(C)oc2nc(C)nc(NCC3CCN(Cc4ccc(C)cc4)CC3)c12	3%
CCCS(=O)(=O)N1CC(=O)N(c2ccccc2F)C(C)(C(=O)NC2CCCCCC2)C1 (stereo not given)	2%
Cn1nc(C(=O)N2CCN(c3ccc(F)cc3)CC2)c2c1-c1ccccc1SC2	28%
CCc1ccc(-n2nc(C)c3c(C(=O)Nc4cc(C)c(Cl)cc4OC)cc(C)nc32)cc1	3%
Cn1cc(CN(C(=O)Nc2ccccc2)C2CCCCC2)c2ccccc21	-21%
CCC(=O)N1CCc2cc(S(=O)(=O)CCC(=O)N3CCN(c4ccccc4Cl)CC3)ccc21	0%
COCCN1C(=O)N(c2cccc(OC)c2)C(=O)C1CC(=O)Nc1ccccc1 (stereo not given)	-7%
Cc1ccc(NS(=O)(=O)c2ccc3[nH]c(=O)ccc3c2)cc1N(C)C	2%
COc1ccc(N2CC(NC(=O)c3ccc(Br)o3)CC2=O)cc1 (stereo not given)	2%
COc1cc(Cl)c(C)cc1NC(=O)CSc1ncc(S(=O)(=O)c2ccc(C(C)(C)C)cc2)c(=O)[nH]1	1%
COc1ccc(-c2nc3n(n2)C(c2ccc(OC)cc2)C(C(=O)Nc2cccnc2)=C(C)N3)cc1 (stereo not given)	-8%
COc1ccccc1-n1cc(-c2ccc(C)cc2)nc1S(=O)(=O)CC(=O)Nc1ccccc1C(F)(F)F	20%
CCOc1cc(C2NC(=O)c3c(sc4c3CCN(C)C4)N2)ccc1OC(=O)c1ccccc1Cl (stereo not given)	-8%
Cc1ccc(CNC(=O)C2CCN(c3nc4ccc(C)cc4[nH]3)CC2)cc1	-7%

Next section; it opens with the seven that closed the last part.
SMILES	miR-21 FLuc
Cc1ccc(NS(=O)(=O)c2ccc3[nH]c(=O)ccc3c2)cc1N(C)C	2%
COc1ccc(N2CC(NC(=O)c3ccc(Br)o3)CC2=O)cc1 (stereo not given)	2%
COc1cc(Cl)c(C)cc1NC(=O)CSc1ncc(S(=O)(=O)c2ccc(C(C)(C)C)cc2)c(=O)[nH]1	1%
COc1ccc(-c2nc3n(n2)C(c2ccc(OC)cc2)C(C(=O)Nc2cccnc2)=C(C)N3)cc1 (stereo not given)	-8%
COc1ccccc1-n1cc(-c2ccc(C)cc2)nc1S(=O)(=O)CC(=O)Nc1ccccc1C(F)(F)F	20%
CCOc1cc(C2NC(=O)c3c(sc4c3CCN(C)C4)N2)ccc1OC(=O)c1ccccc1Cl (stereo not given)	-8%
Cc1ccc(CNC(=O)C2CCN(c3nc4ccc(C)cc4[nH]3)CC2)cc1	-7%
Cc1ccc2c(c1)C(c1ccc(F)cc1)N(C(=O)C(C)C)CC(=O)N2 (stereo not given)	-1%
Cc1cccc(N2CCN(C(=O)c3ccc4c(c3)N(Cc3cccc(Cl)c3)C(=O)c3ccccc3S4(=O)=O)CC2)c1C	-2%
COc1cccc(OCc2nc3ccccc3n2Cc2ccccc2C)c1	8%
Cc1ccc(C(=O)NCCc2csc(-c3cccc(F)c3)n2)cc1C	-9%
CCOc1ccc(CNC(=O)c2ccc(CSc3nc4ccncc4n3Cc3ccc(F)cc3)cc2)cc1	13%
Cc1ccc(-c2cc(C(F)(F)F)n3nc(C(=O)NCC45CC6CC(CC(C6)C4)C5)cc3n2)cc1	-6%
Cc1cccc(N2CCN(C(=O)c3cccn3-c3nnc(N4CCCCC4)s3)CC2)c1C	9%
CC(=O)c1ccc(NC(=O)CSc2nnc(-c3ccncc3)n2-c2ccccc2)cc1	-3%
CC(C)c1ccc(S(=O)(=O)c2cnc(SCC(=O)Nc3cccc(C(F)(F)F)c3)nc2N)cc1	8%
COc1ccc(OC)c(NC(=O)CSc2cn(CC(=O)N3CCCCCC3)c3ccccc23)c1	16%
O=C(O)c1ccc(CSc2nc3cccnc3n2Cc2cccc(F)c2)cc1	-10%
Cc1noc2ncnc(N3CCN(c4cccc(C(F)(F)F)c4)CC3)c12	25%
Cc1cc(C)cc(S(=O)(=O)c2cn(C)c3cc(N4CCCC4)c(F)cc3c2=O)c1	-1%
Cc1cc2oc(C(=O)Nc3ccc(S(=O)(=O)N(C)c4ccccc4)cc3)cc(=O)c2cc1C	0%
CCOc1ccccc1-n1cc2c(c1-c1ccc(OC)cc1)c(=O)n(C)c(=O)n2C	-15%
CCOC(=O)c1c(-c2ccc(C)cc2)csc1NC(=O)c1cc(-c2ccc(Cl)cc2)on1	4%
Cc1ccc(CNC(=O)CN2C(=O)C3(SCC(=O)N3c3ccc(F)cc3)c3ccccc32)cc1 (stereo not given)	-1%
COc1ccc2c(c1)c1c(c(=O)n(-c3ccccc3C)c(=O)n1C)n2C	0%
CC1=C(C(=O)Nc2cccc(C(F)(F)F)c2)C2(CCCCC2)OC1=O	7%
CCOc1ccc(-c2nc(Cn3c(=O)cc(C)c4c(C)nn(-c5ccc(C)cc5)c43)c(C)o2)cc1	-9%

Other compounds:
SMILES	miR-21 FLuc
Cc1ccc(NC(=O)c2cccn2-c2nnc(N3CCCCC3)s2)cc1Cl	-16%
CCCCCOc1ccc(NC(=O)Cn2c(-c3nonc3N)nc3ccccc32)cc1	-3%
Cc1cc(Nc2ccc(Br)cc2)nc(C)n1	-46%
COc1cc(NC(=O)C2CCN(C(=O)c3sc4nc[nH]c(=O)c4c3C)CC2)cc(OC)c1OC	-1%
Cc1c(Cl)cccc1NC(=O)CCS(=O)(=O)c1ccc2c(c1)oc(=O)n2C	-2%
CCOc1ccc(N2CC(NC(=O)c3ccc4c(c3)OCO4)CC2=O)cc1 (stereo not given)	0%
Cc1ccc(C(=O)c2oc3ccccc3c2NC(=O)c2cc(-c3ccccc3)on2)cc1F	-1%
Cc1c(C(=O)N2CCCC2)oc2c1-c1nn(CC(=O)NCc3cccc(Br)c3)cc1CC2	15%
Cc1ccc(S(=O)(=O)NCC(c2ccc(N(C)C)cc2)N2CCOCC2)cc1 (stereo not given)	-3%
Cc1nc2ccn(Cc3ccco3)c(=O)c2cc1C(=O)N1CCN(c2ccccc2F)CC1	2%
COc1cccc(OC)c1C(=O)NCCc1sc(-c2cccc(F)c2)nc1C	-15%
Cc1cc(NC(=O)CN2CCC(C)CC2)nc2c1c(=O)oc1ccccc12	0%
Cc1ccc(NC(=O)C2CCN(S(=O)(=O)c3ccc4c(c3)CCCN4C(=O)C3CCC3)CC2)cc1	26%
Cc1cc(Nc2cccc(Cl)c2C)n2nc(Cc3ccccc3)nc2n1	8%
Cc1cccc(CCNC(=O)c2ccc3c(c2)nc2n3CCCCC2)c1	2%
Cc1ccc2c(c1)Cc1c(nc(-c3ccc(Cl)cc3)nc1SCC(=O)N1CCCCC1)O2	1%
CC(=O)Nc1ccc(Nc2nc3c(S(=O)(=O)c4cc(C)ccc4C)nnn3c3ccsc23)cc1	-3%
Cc1cc2oc(C(=O)N(Cc3ccc(N(C)C)cc3)Cc3ccco3)c(C)c2cc1Cl	-8%
Cc1cc(S(=O)(=O)Nc2cc3c(cc2NCc2ccccc2)n(C)c(=O)n3C)ccc1F	-40%
COc1ccc(/C=C/c2nc(C#N)c(N3CCCCC3)o2)cc1OC	?

The list continues:
SMILES	miR-21 FLuc
Cc1nc2ccc(S(=O)(=O)NC(C(=O)NCc3ccccc3Cl)C(C)C)cc2s1 (stereo not given)	9%
COc1ccc(CNC(=O)C2Cc3cc(S(=O)(=O)N4CCCCCC4)ccc3N2C(C)=O)cc1 (stereo not given)	-4%
CCOc1ccc(Nc2ncnc3c2c(-c2ccccc2)cn3-c2cccc(C)c2)cc1	1%
CN(c1ccccc1)C(CNS(=O)(=O)c1ccccc1)c1ccccc1 (stereo not given)	29%
CCN1CCN(c2ncc3c(n2)CCN(CC(C)C)C3)CC1	0%
COc1ccc(C(=O)NCC(c2ccc3c(c2)OCO3)N2CCOCC2)cc1 (stereo not given)	2%
CCCOc1ccccc1C(=O)N1CCC(c2nc3ccccc3s2)CC1	28%
Cc1ccc(S(=O)(=O)c2nc(-c3ccccc3F)oc2NCc2ccccc2)cc1	-7%
Cc1ccc(NC(=O)Cn2nc(Cc3ccncc3)c3ccccc3c2=O)c(Cl)c1	-16%
CC(C)(C)c1ccc(-c2nc(SCCCOc3ccccc3)n3[nH]c(=O)cc3n2)cc1	3%
CCc1ccc(NC(=O)CSc2nc3ccccc3nc2Cc2ccccc2OC)cc1	4%
Cc1cc(C)cc(NC(=O)CSc2nc(-c3ccccc3)c3cc(F)ccc3n2)c1	5%
CCc1ccccc1NC(=O)Cn1nnc(-c2nc(-c3ccc(C)cc3)no2)c1N	-4%
Cc1ccc(CN(C(=O)c2ccc([N+](=O)[O-])cc2)c2ccccn2)cc1	-5%
COc1cccc(C(=O)c2cn(CC(=O)Nc3ccc4c(c3)OCCO4)c3nc(C)ccc3c2=O)c1	6%
COc1ccc(N(C(=O)c2ccccc2)S(=O)(=O)c2ccc3c(c2)n(C)c(=O)n3C)cc1	1%
CCCCOc1ccc(C2=NC(c3ccncc3)=Nc3ccc(Br)cc3N2)cc1	-3%
Cc1cc(C)c(NC(=O)Cn2c(=O)n(CCC(=O)NCc3ccc4c(c3)OCO4)c(=O)c3ccccc32)c(C)c1	-2%
CC(C)c1ccc(NC(=O)c2cc3c(s2)-c2ccccc2SC3)cc1	4%
CCn1cc(C(=O)OCC(=O)Nc2cc(C)cc(C)c2)c(=O)c2ccc(C)nc21	-1%

Going on with the list.
mol | miR-21 FLuc
Cn1c(=O)n(-c2ccc(Br)cc2F)c(=O)c2sc3ccccc3c21 | -8%
Cc1ccccc1C(=O)N1CCN(CCc2ccccn2)CC1 | 3%
O=C(NC1CCCC1)c1ccc(CSc2nc3cccnc3n2Cc2ccc(F)cc2)cc1 | -3%
Cc1oc(-c2ccccc2Cl)nc1CSc1nncn2c1cc1occc12 | 0%
COc1cc(NC(=O)CCn2nc(C)c(S(=O)(=O)N3CCCCC3)c2C)cc(OC)c1OC | 1%
CC(C)Cn1c(=O)c2ccccc2n2c(CCC(=O)N3CCN(c4ccccc4)CC3)nnc12 | 28%
COc1cc(NS(=O)(=O)c2cc3[nH]c(=O)[nH]c3cc2C)cc(OC)c1OC | -1%
CSc1nc2sc3c(c2c(=O)n1-c1ccccc1C)CCCC3 | 14%
COc1ccc(CNC(=O)c2ccc3c(c2)N(Cc2ccccc2F)C(=O)c2ccccc2S3=O)cc1 (stereo not given) | -4%
Cc1nn(C)c2c1c(-c1ccccc1)cc(=O)n2Cc1ccc(Cl)cc1 | -5%
CCOC(=O)c1c(C)[nH]c(CCC(=O)Nc2cc(Cl)ccc2OC)c1C | 8%
CCOc1ccc(Nc2oc(-c3ccc(COc4ccc(OC)cc4)o3)nc2C#N)cc1 | -9%
Cc1ccc(C(=O)NCC(c2ccc3c(c2)OCO3)N2CCN(C)CC2)cc1C (stereo not given) | 3%
Cc1nn(-c2ccc(N3CCCC3)nn2)c(C)c1CCC(=O)Nc1ccc(F)c(Cl)c1 | -2%
CCc1ccc(NC(=O)CCNS(=O)(=O)c2ccc3c(c2)oc(=O)n3C)cc1 | -2%
CN(C)CCNC(=O)Cc1ccc(NC(=O)N2CCCCc3ccccc32)cc1 | 2%
O=C(c1ccc2c(c1)N(Cc1c(F)cccc1Cl)C(=O)c1ccccc1S2)N1CCCC1 | 6%
COc1cc(CNC(=O)CSCc2nc3cccnc3n2C2CCCCC2)cc(OC)c1OC | 1%
Cc1cccc(OCC(=O)N2CCC(c3nc4ccccc4o3)CC2)c1C | -10%
CCCCOc1ccc(NC(=O)Cn2nnnc2-c2ccccc2F)cc1 | 4%
CCCNC(=O)CCSc1nc(-c2ccc3c(c2)OCO3)cc(C(F)(F)F)n1 | -1%
COc1ccc(/C=C/C(=O)Nc2sc3c(c2C(N)=O)CCCC3)cc1 | -15%
CC(=O)c1sc(NC(=O)c2c(-c3ccccc3)c(-c3ccccc3)nn(C)c2=O)nc1C | 27%
COc1ccc(Br)cc1CNC(=O)c1ccc2nc(C(C)C)oc2c1 | -1%
Cc1c(C(=O)NCc2ccc(F)cc2)oc2ccc(S(=O)(=O)N3CCCCC3)cc12 | 24%

Looked up one by one from the entries so far:
mol | miR-21 FLuc
COc1cc(CNC(=O)CSCc2nc3cccnc3n2C2CCCCC2)cc(OC)c1OC | 1%
Cn1c(=O)n(-c2ccc(Br)cc2F)c(=O)c2sc3ccccc3c21 | -8%
O=C(NC1CCCC1)c1ccc(CSc2nc3cccnc3n2Cc2ccc(F)cc2)cc1 | -3%

(list continues)
mol | miR-21 FLuc
Cc1ccc(CNC(=O)CN2C(=O)CCc3cc(S(=O)(=O)N4CCCCC4)ccc32)cc1 | -8%
Cc1nc2ccn(Cc3cccs3)c(=O)c2cc1C(=O)NCc1ccccc1 | 22%
Cn1c(=O)c2c(nc(NCCc3ccccc3)n2Cc2ccccc2Br)n(C)c1=O | -13%
Cn1c(=O)c2cc(S(=O)(=O)NC(Cc3ccccc3)C(=O)Nc3ccc(F)cc3)ccc2n(C)c1=O (stereo not given) | -8%
CCCN1CCCc2cc(CN(CCCN3CCOCC3)C(=O)Nc3ccc(CC)cc3)ccc21 | 7%
Cc1ccc(NC(=O)CN2C(=O)COc3ccc(S(=O)(=O)NC4CCCC4)cc32)c(Cl)c1 | -4%
Cc1ccc(NC(=O)[C@H](CSCc2ccccc2)N2Cc3ccccc3C2=O)cc1 | -11%
CCc1ccc2c(c1)c(=O)c(S(=O)(=O)c1ccccc1)cn2CC(=O)Nc1ccc(OC)cc1 | 0%

A portion of the library, so the mix of outcomes need not match the whole.
